Screens from PubChem.
AID923: qHTS Assay for Allosteric/Competitive Inhibitors of Caspase-1: Spectroscopic Profiling in AFC Spectral Region; compound fluorescence, AFC spectral region (405/520 nm); almost no hit is shown here; Potency, µM (highest dose often 57.5 µM), without a hit: at the top dose fluorescence increase, actives largely listed as activators; 75,000 compounds, 1.1% hits; active = well fitted activation curve with a large enough effect; inconclusive = small, poorly fitted or top-dose-only effect;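 note: potency is the fitted concentration of half-maximal effect; 0% is about no effect; scaled to a free AFC standard on each plate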
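Compound autofluorescence profiled at 405 nm ex/520 nm em during kinetic caspase 1 run (50 nM enzyme, 5 uM Ac-WEHD-AFC, HEPES pH 7.5, 10 mM DTT). Titration up to 57 uM; baseline from regression intercept, normalized to AFC standard curve.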
TSHR ag: qHTS Assay for Agonists of the Thyroid Stimulating Hormone Receptor; Potency, µM (titrated, usually from 57.1 µM), inactives show at the top dose activation, hits mostly activators; HEK293-CNG-TSHR cells (CNG channel as cAMP sensor), membrane potential dye, cAMP; Thyrotropin receptor (Homo sapiens), P16473; 73,000 compounds, 0.48% hits; active = well fitted activation curve of enough size with the parental cells flat; inconclusive = any curve in the parental cells; inactive = parental cells flat and receptor cells flat or falling; note: potency is the fitted concentration of half-maximal effect; % of control where 0% means no effect; weak receptor curves with flat parental cells got no call and are not listed
Target sequence (P16473 whole entry, looked up): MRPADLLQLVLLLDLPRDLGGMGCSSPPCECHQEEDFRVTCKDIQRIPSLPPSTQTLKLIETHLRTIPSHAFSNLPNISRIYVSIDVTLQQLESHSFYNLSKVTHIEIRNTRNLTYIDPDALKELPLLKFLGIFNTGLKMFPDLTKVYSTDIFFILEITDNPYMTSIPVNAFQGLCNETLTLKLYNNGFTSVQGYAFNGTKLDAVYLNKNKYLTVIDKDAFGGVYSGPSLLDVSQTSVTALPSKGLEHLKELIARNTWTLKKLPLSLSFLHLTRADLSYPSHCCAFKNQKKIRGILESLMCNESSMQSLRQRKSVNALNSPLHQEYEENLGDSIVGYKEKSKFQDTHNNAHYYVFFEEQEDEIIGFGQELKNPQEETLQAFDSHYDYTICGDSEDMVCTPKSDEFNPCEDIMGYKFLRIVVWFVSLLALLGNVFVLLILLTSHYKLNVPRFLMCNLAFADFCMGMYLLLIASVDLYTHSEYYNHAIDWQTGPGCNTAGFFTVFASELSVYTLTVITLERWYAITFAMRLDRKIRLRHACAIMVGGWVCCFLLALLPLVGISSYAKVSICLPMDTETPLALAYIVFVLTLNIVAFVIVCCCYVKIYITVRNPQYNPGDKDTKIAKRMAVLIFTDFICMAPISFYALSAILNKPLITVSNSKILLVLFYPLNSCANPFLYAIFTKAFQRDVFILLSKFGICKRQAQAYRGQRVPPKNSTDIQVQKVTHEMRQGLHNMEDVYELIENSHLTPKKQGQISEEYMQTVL
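cAMP rise detected as CNG-channel membrane depolarization by fluorescent dye (emission 590 nm), 30 min after compound, following 60 min dye loading containing 100 uM RO 20-1724 at room temperature. Cells: TSHR/CNG HEK 293, with parental CNG HEK 293 as control.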
Resorufin autofl: qHTS Assay for Spectroscopic Profiling in Resorufin Spectral Region | Compound fluorescence, resorufin region 547/598 nm, buffer; hits give high values | max dye-equivalent concentration, M | 59,000 compounds, 0.04% hits | AID 588, 2007; active = above 10 nM dye equivalent; inconclusive = 1 to 10 nM; inactive = 1 nM or less; a few of its hits are not listed in these tables; note: highest value over a series up to 38 µM
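Dye-equivalent concentration values derive from comparing each well's 547/598 nm fluorescence against resorufin standards included on every plate. Incubation was 15 min at room temperature in 100 mM Tris, pH 8.0.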
A488 fluor: qHTS Assay for Spectroscopic Profiling in A488 Spectral Region; compound autofluorescence, A488 spectral region, dye equivalency; hits give high values; max dye equivalency, M; 59,000 compounds, 0.1% hits; AID 591, 2007; active = above 10 nM dye equivalent; inconclusive = 1 to 10 nM; inactive = 1 nM or less; about half of its hits are not listed in these tables;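 note: highest value over a series up to 38 µM; compound alone in buffer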
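Compound autofluorescence was read in 100 mM Tris pH 8.0 after 15 min at room temperature, ex 480 nm/em 540 nm. Intensities were converted to A488 dye-equivalent concentration using an on-plate six-point A488 standard curve.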
A647 fluor: qHTS Assay for Spectroscopic Profiling in A647 Spectral Region. Compound fluorescence, A647 channel (570/671 nm), Tris buffer. max dye-equivalent concentration, M. 59,000 tested, under 10 active; active means above 1 µM dye equivalent; inconclusive means 0.1 to 1 µM; inactive means 0.1 µM or less;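 note: values scaled relative to a standard on each plate; highest value over a series up to 38 µM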
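Tris 100 mM pH 8.0; cpd + A647 stds pin-transferred; 15 min RT; CCD imager, ex 570/em 671. Output = A647-equivalent conc. per cpd conc.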
* = called active by the depositor; i = inactive; ? = inconclusive; . = not tested or not shown; [ ] = another dose, or the depositor's remark. These rows are one share of the data; count on the stated rates, not on these rows.

Below each compound – AID923	TSHR ag	Resorufin autofl	A488 fluor	A647 fluor
1) CC(C)[C@H](NC(=O)[C@@H]1CSCN1C(=O)OC(C)(C)C)C(=O)NCC1CCC(C(=O)O)CC1 (some centres undefined)
→ 0.4%	5.0%	i	i	1.11e-08
2) COC(=O)[C@H](CCSC)NC(=O)Nc1ccc(C)c(C)c1
→ 1.6%	-4.5%	i	i	4.2e-09
3) Nc1cc(N)nc(SCCN2CCCCC2)n1
→ -1.7%	-2.4%	i	i	1e-09
4) O=c1c2ccccc2nc(SCc2ccccc2)n1Cc1ccco1
→ 3.4%	?	i	i	4.83e-08
5) CCN(CC)CCN1C(=O)C(=O)/C(=C(/O)c2c(C)[nH]c(C(=O)OC)c2C)C1c1ccc(OC)cc1 (centres undefined)
→ .	.	i	i	2.21e-08
6) O=C(NCc1ccco1)C(c1ccc(F)cc1)N(CC1CCCO1)C(=O)Cn1nnc2ccccc21 (centres undefined)
→ -1.4%	17.5%	i	i	1.53e-08
7) CCOC(=O)C1CCN(C(=O)CC2C(=O)N(Cc3ccccc3)C(C)c3nc4ccccc4n32)CC1 (centres undefined)
→ -0.9%	8.9%	i	i	1e-09
8) Oc1ccc(-c2nc(-c3ccc(F)cc3)c(-c3ccncc3)[nH]2)cc1
→ -3.4%	?	i	i	9.7e-09
9) O=C(O)c1ccccc1SC1CC(=O)N(C2CCCCC2)C1=O (centres undefined)
→ 3.7%	0.4%	.	.	.
10) O=C(COC(=O)c1ccc(Br)o1)NCc1ccco1
→ -1.0%	3.5%	i	i	4.6e-09
11) O=C(C1CCCN1C(=O)c1cccs1)N1CCN(Cc2ccc3c(c2)OCO3)CC1 (centres undefined)
→ -0.1%	-0.7%	i	i	2.6e-09
12) O=C(NCC1CCCO1)c1ccccc1-c1nc(-c2ccc(Cl)cc2)no1 (centres undefined)
→ 1.3%	24.1%	i	i	2.67e-08
13) Cc1ccccc1N(C(=O)Cn1nnc2ccccc21)C(C(=O)NCc1ccco1)c1ccncc1 (centres undefined)
→ -5.3%	-0.3%	i	i	1.34e-08
14) CC(=O)c1cccc(S(=O)(=O)N(CCCO)Cc2cc3ccc(C)cc3[nH]c2=O)c1
→ -0.1%	9.7%	i	i	3.3e-08
15) Cc1cc(NC(=O)COC(=O)COc2cccc3c2OC(C)(C)C3)no1
→ 0.2%	?	i	i	1.56e-08
16) O=C(NCc1cccs1)C1CCCN(S(=O)(=O)c2ccc(Br)s2)C1 (centres undefined)
→ -2.3%	.	i	i	3.9e-08
17) N#Cc1cccc(NC(=O)N2CC3(CCN(C(=O)c4ccco4)CC3)C2)c1
→ 3.1%	-1.2%	i	i	2.63e-08
18) Cc1ccccc1NC(=O)c1ccc(NC(=O)c2ccco2)cc1
→ -1.1%	-1.5%	i	i	1e-09
19) CC1=C(C(=O)N2CCOCC2)C(c2cccs2)NC(=O)N1 (centres undefined)
→ 0.9%	17.5%	.	.	.
20) C=CCNC(=O)CCCCC(=O)NCC=C
→ -1.2%	.	i	i	8.4e-09
21) CCN(CC)CCN(CC)Cc1ccccc1Br
→ -0.6%	?	.	.	.
22) CCOc1ccc(Nc2oc(Cc3ccccc3)nc2C#N)cc1
→ -0.7%	-7.6%	i	i	1.5e-09
23) CCCCC(c1nnnn1C1CCCC1)N1CCN(C2CCCC2)CC1 (centres undefined)
→ -0.4%	?	i	i	2.72e-08
24) O=C(NCCc1ccc(S(=O)(=O)N2CCCC2)cc1)c1cccs1
→ 0.7%	9.9%	.	.	.
25) CCn1nnc(NC(=O)c2cccnc2)n1
→ -0.8%	7.0%	i	i	3.11e-08
26) O=C(CSc1ncn(-c2ccccc2)n1)Nc1ccc2c(c1)OCCO2
→ 1.2%	34.5%	i	i	2.6e-09
27) CC1(C)CC(=O)C(C=NCCC2=CCCCC2)=C(O)C1
→ -0.1%	?	.	.	.
28) O=C(O)CCC(=O)Nc1ccc(S(=O)(=O)N2CCCC2)cc1
→ 0.8%	1.0%	i	i	1e-09
29) COC(=O)c1ccc(C(NC(=O)OCc2ccccc2)/C(C)=C/[C@@H](C)C(=O)NCc2nc3ccccc3s2)cc1 (some centres undefined)
→ 1.3%	?	.	.	.
30) NCCCCCCCCCCN
→ -1.0%	?	i	i	4.13e-08

Four of the compounds above, as labelled records.
(22) CCOc1ccc(Nc2oc(Cc3ccccc3)nc2C#N)cc1
  AID923: -0.7%	TSHR ag: -7.6%	Resorufin autofl: i	A488 fluor: i	A647 fluor: 1.5e-09
(16) O=C(NCc1cccs1)C1CCCN(S(=O)(=O)c2ccc(Br)s2)C1 (centres undefined)
  AID923: -2.3%	TSHR ag: .	Resorufin autofl: i	A488 fluor: i	A647 fluor: 3.9e-08
(25) CCn1nnc(NC(=O)c2cccnc2)n1
  AID923: -0.8%	TSHR ag: 7.0%	Resorufin autofl: i	A488 fluor: i	A647 fluor: 3.11e-08
(19) CC1=C(C(=O)N2CCOCC2)C(c2cccs2)NC(=O)N1 (centres undefined)
  AID923: 0.9%	TSHR ag: 17.5%	Resorufin autofl: .	A488 fluor: .	A647 fluor: .

Other structures:
Below each compound – AID923	TSHR ag	Resorufin autofl	A488 fluor	A647 fluor
31) CCOc1ccc2[nH]c(=O)c(CN(CCO)C(=O)c3ccccc3F)cc2c1
→ -1.9%	25.0%	i	i	6.4e-08
32) CNC(=O)NC(=O)CSc1nc2cc(C(=O)OC)ccc2c(=O)n1-c1ccccc1
→ -1.2%	6.4%	i	i	3.09e-08
33) N#C[C@@H](Cc1ccc(O)c(O)c1)C(=O)N1CCc2ccccc21
→ -1.6%	-1.5%	i	i	2.21e-08
34) O=C(O)CCCNc1cc(N2CCC3(CC2)OCCO3)c2noc3c2c1C(=O)c1ccccc1-3
→ 5.0%	-19.5%	?	i	3.54e-08
35) O=C(Oc1ccccc1N1C(=O)CCC1=O)c1ccco1
→ .	.	i	i	1.94e-08
36) Nc1nc2n(n1)C(c1ccc(F)cc1)CC(c1ccc(F)cc1)N2 (centres undefined)
→ .	.	i	i	4.93e-08
37) Cc1ccc(C)c(N2CCN(C(=O)c3cc(S(=O)(=O)N4CCOCC4)ccc3F)CC2)c1
→ -1.9%	11.1%	i	i	3.6e-09
38) Cc1sc2nc3n(c(=O)c2c1C)NC(=O)CC3
→ 3.6%	4.5%	i	i	1.1e-08
39) Cc1ccc2cc3cc(C(=O)N4CCCCCC4)oc3nc2c1
→ 0.9%	4.0%	i	i	1.12e-08
40) CC(=O)c1c(N=CN(C)C)nc(C)nc1-c1ccccc1
→ -1.5%	0.3%	i	i	5.1e-09
41) Cc1noc(C)c1COC(=O)c1cc(F)c(F)cc1Cl
→ 1.3%	17.1%	i	i	2.74e-08
42) O=C(c1cnn2cccnc12)N1CCN(Cc2ccc3c(c2)OCO3)CC1
→ 1.7%	0.2%	i	i	1.12e-08
43) COc1ccc(-n2nc(C(=O)Nc3ccc4c(c3)OCO4)c3ccccc3c2=O)c(OC)c1
→ -1.3%	?	i	i	7.8e-09
44) NC(=Nc1ccccc1)Nc1ccccc1
→ 0.9%	4.0%	.	.	.
45) Cc1ccc(-c2nnn(CC(=O)N3CCCCC3)n2)c(-n2cnnn2)c1
→ 0.0%	-5.0%	i	i	1e-09
46) C/C(=N\O)C(=O)C(CN1CCCCC1)CN1CCCCC1
→ -0.1%	-0.8%	.	.	.
47) COC(=O)c1[nH]c2ccccc2c1NC(=O)CNC1CCCCC1
→ 0.8%	18.8%	i	i	1e-09
48) CN(C)c1ccc(C2N(c3ccc(F)cc3)C(=O)C3CCCN32)cc1 (centres undefined)
→ 3.7%	1.9%	.	.	.
49) CC(=O)Nc1nc(-c2ccccc2)nc(-c2ccccc2OC(C)=O)n1
→ -1.6%	?	.	.	.
50) CC(C)OCCCNC(=O)CCc1nc(-c2ccccc2)no1
→ -0.8%	5.2%	i	i	4.32e-08
51) C=CCN1C(=O)C2C(C(=O)NC3CCCCC3)C3C=CC2(O3)C1C(=O)NC1CCCC1 (centres undefined)
→ -1.7%	-4.8%	i	i	1e-09
52) CN(Cc1ccco1)c1ncncc1-c1cccnc1
→ 3.8%	1.7%	i	i	9.2e-09
53) Cc1cc(C)n(-c2cccc(Cl)c2)c(=O)c1C#N
→ -0.6%	9.2%	i	i	2.05e-08
54) O=C(CC1CCCCC1)N1CCN(c2ccccn2)CC1
→ -0.9%	7.6%	i	i	2.4e-09
55) O=C(CSc1ccccn1)N1CCN(c2ccccc2)CC1
→ 2.4%	8.3%	i	i	1e-09
56) O=C(Cn1cnc2ccccc21)OCC(=O)N1CCc2ccccc2C1
→ 0.5%	2.4%	i	i	3.25e-08
57) CN(C)CCCNC(=O)c1ccc(CN(c2ccccc2)S(C)(=O)=O)cc1
→ 4.4%	0.8%	.	.	.
58) CN(C)CCOc1nc(-c2ccccc2)nc2c1oc1ccccc12
→ 0.8%	?	i	i	9.7e-09
59) FC(F)C(F)(F)C1=CC(c2cccs2)=NCCN1
→ 2.4%	3.0%	i	i	3.88e-08
60) CC(=O)N1CCc2cc(S(=O)(=O)NC(C(=O)NC3CCCc4ccccc43)C(C)C)ccc21 (centres undefined)
→ -1.4%	?	i	i	1e-09
61) O=C1CCC(=O)N1c1ccc(CSc2nc3ccccc3[nH]2)cc1
→ 1.3%	-0.7%	.	.	.
62) CCOc1ccccc1-c1nnc(SCC(=O)NC2CC3CCC2C3)n1CC (centres undefined)
→ 1.1%	17.1%	i	i	1e-09
63) Cc1cc2oc(=O)cc(C)c2c(=O)o1
→ 0.0%	14.7%	i	i	1.36e-08
64) CCOC(=O)c1c(N)sc(C(O)(C(F)(F)F)C(F)(F)F)c1-c1ccc(OC)cc1OC
→ 2.9%	5.4%	i	i	1.18e-08
65) CCN(CC)S(=O)(=O)c1ccc(C(=O)NCc2n[nH]c(=S)n2Cc2ccccc2)cc1
→ 1.4%	-0.6%	i	i	2.6e-08
66) CCN(CC)S(=O)(=O)c1ccc(NC(=O)COC(=O)c2ccc(Br)o2)cc1
→ -1.5%	-8.5%	i	i	1e-09
67) c1ccc(-c2nc3nc4ccccc4nc3n2Cc2ccco2)cc1
→ 3.1%	?	i	i	2.45e-08
68) O=C(c1ccco1)N1CCN(c2ncnc3c2[nH]c2ccc(Br)cc23)CC1
→ -2.3%	-7.8%	i	i	1.8e-08
69) COc1ccc(C(CNC(=O)Cn2[nH]c(=O)c3ccccc3c2=O)N2CCCC2)cc1 (centres undefined)
→ -0.8%	11.2%	i	i	1e-09
70) CC1(C)Cc2c(sc3nn[nH]c(=O)c23)CO1
→ 3.2%	-2.5%	i	i	3.5e-09
71) CCS(=O)(=O)n1nc(-c2ccccc2)nc1SCc1ccccc1
→ -1.3%	?	i	i	3.6e-09
72) Cn1nnc(NC(=O)c2ccccc2F)n1
→ 7.3%	9.9%	.	.	.
73) COc1ccc(-c2nc3cnc(OC)nc3n(CCC#N)c2=O)cc1
→ 1.0%	-2.6%	i	i	1.38e-08
74) Cc1cccc(CCN(Cc2cc3cccc(C)c3[nH]c2=O)C(=O)N2CCOCC2)c1
→ 0.1%	6.3%	i	i	1.48e-08
75) Cn1c(=O)c2c(ncn2CC(N)=O)n(C)c1=O
→ 0.3%	-1.4%	i	i	2.8e-09
76) COc1ccccc1C(=O)NCCC(=O)N1CC(=O)Nc2ccccc21
→ 0.2%	.	i	i	2.6e-09
77) CCCC(=O)CN1C(=O)C2(OCCO2)c2ccccc21
→ 0.2%	1.3%[11.4 µM]	i	i	1e-09
